UCH37 inh: blocks the human deubiquitinase UCH37; Q9Y5K5; purified proteasome/UCH37, Ub-AMC cleavage fluorescence; inhibition, % (test concentration not listed); 330,000 tested, 0.33% active;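 active = mean of two replicates above 20%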;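 note: 0% = compound-free wells with enzyme and 100% = wells lacking proteasome; stock transfer was 100 nL into about 20 µL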
Target sequence (Q9Y5K5 whole entry, looked up): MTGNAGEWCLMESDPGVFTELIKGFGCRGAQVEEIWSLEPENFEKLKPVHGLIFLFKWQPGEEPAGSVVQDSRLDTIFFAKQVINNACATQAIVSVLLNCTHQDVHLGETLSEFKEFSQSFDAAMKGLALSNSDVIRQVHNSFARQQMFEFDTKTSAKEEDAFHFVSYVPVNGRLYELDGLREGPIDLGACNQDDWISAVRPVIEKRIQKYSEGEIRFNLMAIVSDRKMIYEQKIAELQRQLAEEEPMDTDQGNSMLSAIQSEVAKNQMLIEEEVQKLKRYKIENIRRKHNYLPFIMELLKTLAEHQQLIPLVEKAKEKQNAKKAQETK
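Reagent: Ub-AMC substrate; assay system: Proteasome-associated human UCH37 deubiquitinase; controls: no-proteasome and no-compound wells; read-out: % inhibition of Ub-AMC cleavage fluorescence; timing: 30 min preincubation with enzyme, 25 min cleavage at room temperature; signal: AMC fluorescence from Ub-AMC cleavage, excitation 355 nm, emission 460 nm; buffer or medium: Tris-HCl pH 7.4 plus ovalbumin, ATP-MgCl2, DTT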
Starred values were filed as active, the others as inactive; i = inactive. The list is partial, so the mix of outcomes need not match the whole.

SMILES	UCH37 inh
Cc1ccc(S(=O)(=O)N=C(N)Nc2nc(C)c3ccc(C)cc3n2)cc1	3.5
N#Cc1ccc(NN=Cc2ccccc2)c([N+](=O)[O-])c1	3.0
O=C(Oc1cccc(C=NNc2nc(Nc3ccccc3)nc(N3CCOCC3)n2)c1)c1ccco1	5.9
O=c1c(Cl)c(NN=Cc2ccc(Cl)cc2)cnn1-c1ccccc1	-53
COCc1cc(C)nc(OCC(=O)NN=Cc2ccc(OC)c(OC)c2)c1C#N	4.7
COc1cc(C=NNC(=O)CCc2ccccc2)ccc1O	-2.1
COc1ccc(Br)cc1C=Nn1c(C)nc2ccccc2c1=O	2.0
COc1cc(C=NNc2ccccc2[N+](=O)[O-])cc(OC)c1O	6.0
Cc1ccc(-n2c(C)cc(C=NNC(=O)c3ccncc3)c2C)cc1C	9.0
CCCn1c(=O)c(C(=O)NN=Cc2ccc(F)cc2)c(O)c2ccccc21	1.7
Cc1ccccc1NCC(=O)NN=Cc1ccc2c(c1)OCO2	6.2
Cc1nc2ccccn2c1C(=O)NN=Cc1ccccc1[N+](=O)[O-]	6.4
Cc1ccc(N2CN=c3sc(=Cc4cccnc4)c(=O)n3C2)cc1	6.6
C/C(C=NNC(=O)c1cc(C2CC2)[nH]n1)=C\c1ccccc1	5.7
CCOC(=O)NN=C/C=C/c1ccco1	6.6
COCc1cc(C)nc(OCC(=O)NN=Cc2ccc(OC)c(O)c2)c1C#N	3.9
COC(=O)NN=Cc1ccc(-c2cc(Cl)cc(Cl)c2)o1	-0.3
COc1cccc(C=NN2CCN(c3ccncc3S(=O)(=O)N3CCCCC3)CC2)c1	3.6
CC(=NNC(=O)c1ccc(O)cc1O)c1cccnc1	8.4
NC(=S)NN=Cc1c(O)c(Br)cc2oc3c(c12)CCCC3	3.0
CC(=NNC(=O)c1cc(-c2cccs2)nc2ccccc12)c1ccccn1	-130
CC(=NNc1ccc(C(=O)c2c(C)cc3ccccn23)cc1[N+](=O)[O-])c1ccc(O)cc1	8.1
CCC(=NNC(=O)CSCc1ccccc1Br)c1ccc2c(c1)OCCO2	6.6
COc1ccccc1C=NNC(=O)c1c(C)nc2ccc(Cl)cn12	1.9
Cc1c(NC(=S)NN=Cc2ccccc2O)c(=O)n(-c2ccccc2)n1C	-59
Carrying on:
SMILES	UCH37 inh
CCOc1ccc(CC(=O)NN=C(C)c2cccnc2)cc1OCC	1.9
CC(CC(=O)Nc1ccccn1)=NNC(=O)C(=O)Nc1cccc(Cl)c1C	-0.5
O=[N+]([O-])c1ccccc1-c1ccc(C=Nn2cnnc2)o1	12
CC(=NNC(=O)c1cccc(Cl)c1)C1C(=O)c2ccccc2C1=O	13
Oc1ccccc1C=Nn1c(-c2ccccc2)n[nH]c1=S	1.1
O=C(NN=Cc1ccncc1)c1ccc(-n2cccc2)cc1	2.0
O=c1c(=Cc2ccccc2)sc2nnc(-c3cccs3)n12	3.2
COc1cc(C=NNC(=O)c2cc(-c3ccccc3Cl)nc3ccccc23)cc(OC)c1O	1.3
Cc1cc(Br)c(OCc2ccc(C(=O)NN=C3CC(=O)CC(C)(C)C3)cc2)c(Br)c1	-1.2
CC(=NNC(=O)CNC(=O)c1ccc2c(c1)OCO2)c1ccc2c(c1)CCCC2	1.9
Cc1ccn2c(C=NOCc3cccc(F)c3)c(-c3ccc(Cl)cc3)nc2c1	-150
O=C(NN=Cc1ccc2c(c1)OCO2)c1sc2cc(Cl)ccc2c1Cl	-6.8
NC(=O)C[n+]1cccc(C=NO)c1	0.5
Cc1ccc(C)c(OCC(=O)NN=Cc2cccn2C)c1	6.7
CS(=O)(=O)N(CC(=O)NN=Cc1cccs1)c1cccc(Cl)c1Cl	3.4
COc1ccc(C(=O)NN=Cc2ccc(OC)c(COc3ccccc3)c2)cc1	-1.6
COc1ccc(C=NNC(=O)NC23CC4CC(CC(C4)C2)C3)c(OC)c1	1.3
Cc1cccc2c1OCCC2=NNC(=O)COc1ccccc1Cl	-0.7
COc1ccc(CCNC(=O)CC(C)=NNC(=O)c2ccc([N+](=O)[O-])cc2Cl)cc1OC	3.9
COc1ccccc1NC(=O)C(=NOCc1ccc(C#N)cc1)C(C)=O	4.6
O=C(CSc1nc2ccccc2n1Cc1ccc(Cl)cc1)NN=Cc1ccccc1C(=O)O	4.9
O=C(CN1CCCCC1)NN=Cc1cccc(Cl)c1	-1.1
O=S(=O)(N=Cc1c(O)ccc2ccccc12)c1cccs1	7.3
Cc1nnc(C)n1N=Cc1ccc(O)cc1	1.3
COc1ccc(C=NNC(=O)c2ccoc2C)cc1OC	5.1

3 structures already listed, ordered by SMILES length, lowest first.
SMILES	UCH37 inh
Cc1ccc(C)c(OCC(=O)NN=Cc2cccn2C)c1	6.7
Oc1ccccc1C=Nn1c(-c2ccccc2)n[nH]c1=S	1.1
Cc1ccn2c(C=NOCc3cccc(F)c3)c(-c3ccc(Cl)cc3)nc2c1	-150

The listing picks up; the 7 compounds before the break are reprinted first.
SMILES	UCH37 inh
COc1ccc(CCNC(=O)CC(C)=NNC(=O)c2ccc([N+](=O)[O-])cc2Cl)cc1OC	3.9
COc1ccccc1NC(=O)C(=NOCc1ccc(C#N)cc1)C(C)=O	4.6
O=C(CSc1nc2ccccc2n1Cc1ccc(Cl)cc1)NN=Cc1ccccc1C(=O)O	4.9
O=C(CN1CCCCC1)NN=Cc1cccc(Cl)c1	-1.1
O=S(=O)(N=Cc1c(O)ccc2ccccc12)c1cccs1	7.3
Cc1nnc(C)n1N=Cc1ccc(O)cc1	1.3
COc1ccc(C=NNC(=O)c2ccoc2C)cc1OC	5.1
CC(Cc1ccccc1)=NNC(=O)c1ccccn1	2.6
C=CCSC(N)=NN=Cc1c(O)ccc2ccccc12	-2.8
O=C(NN=C1CCCc2ccccc21)c1ccccc1[N+](=O)[O-]	2.9
Cc1ccccc1OCC(=O)NN=Cc1sc(=O)n(Cc2cccc(C(=O)O)c2)c1Cl	7.1
CCOC(=O)C(=NNc1cc(Cl)ccc1Cl)N1CCN(C)CC1	5.4
COc1cc(C=NS(=O)(=O)CCc2ccccc2)ccc1O	9.4
CC(=NNc1cccc([N+](=O)[O-])c1)c1cc(F)ccc1O	6.9
O=C(Cn1cnc([N+](=O)[O-])n1)NN=Cc1ccc(O)cc1O	8.0
CC(=NOCC(=O)NCCCCCCNC(=O)CON=C(C)c1cccs1)c1cccs1	1.6
CCc1nnc(NN=Cc2c(F)cccc2Cl)n1N	8.3
COc1ccc(C=NNC(=O)COc2ccc3ccccc3c2)c(C(=O)O)c1OC	2.6
COc1ccc(OC)c(S(=O)(=O)NN=Cc2ccc3c(c2)OCO3)c1	1.6
COc1ccc2nc(C)cc(SCC(=O)NN=Cc3c(OC)ccc4ccccc34)c2c1	-42
CCNN=C(Cc1nc2ccccc2[nH]1)c1ccccc1	-8.0
CC(=NNC(=O)Cc1ccc(Cl)cc1)c1cccc(NC(=O)c2cccnc2)c1	-34
COc1ccc(C(=O)NCC(=O)NN=Cc2cccc(OC(=O)c3ccco3)c2)cc1OC	4.9
CC(=O)C(=NNc1ccccc1)Sc1nnc(C(O)c2ccccc2)n1-c1ccccc1 (stereo not given)	9.4
CC(=NNC(=O)c1cccc(S(=O)(=O)N2CCOCC2)c1)c1ccc(O)cc1	1.6
O=C(NN=Cc1ccncc1)c1ccc2c(c1)OCO2	2.6
Cc1cc(C)c2c(c1)C(=NNC(=O)c1ccc(O)cc1)CCC2	1.5
COc1ccc(C(=O)NN=Cc2sc3ccccc3c2O)cc1	9.1
COc1ccccc1N1CCN(N=Cc2cc(OC)c(OC(C)=O)c(OC)c2)CC1	-0.7
CC(=NNc1nc2ccccc2nc1C)c1ccccc1O	6.7
O=C(Cn1nnc(-c2ccccc2Cl)n1)NN=Cc1ccc2c(c1)OCO2	-7.4
CN1CCc2c(sc(N=Cc3c[nH]c4ccccc34)c2C(N)=O)C1	9.5

The closing two entries of the section above are carried over, then new ones follow.
SMILES	UCH37 inh
O=C(Cn1nnc(-c2ccccc2Cl)n1)NN=Cc1ccc2c(c1)OCO2	-7.4
CN1CCc2c(sc(N=Cc3c[nH]c4ccccc34)c2C(N)=O)C1	9.5
CC(=NNC(=O)CCC(=O)NCc1ccccc1)c1ccco1	5.9
CC(=O)Nc1ccc(C=NOCC(=O)Nc2ccc(C)cc2)cc1	0.5
CC(=NOC(=O)C1CC12CCC2)c1ccc(Br)cc1 (stereo not given)	1.2
COc1cc(C=NNC(=O)CCn2nc(C)cc2C)ccc1O	-3.2
COc1ccc(-c2[nH]ncc2C=NNC(=O)c2cc(Br)ccc2O)c(OC)c1	-30
Clc1ccc(Sc2oc(C=Nn3cnnc3)cc2Br)cc1	-15
COc1ccccc1C(=O)NN=C(C)c1ccc(NC(=O)Cc2ccccc2)cc1	i
O=C(NN=Cc1ccc[nH]1)c1ccc(O)cc1	6.7
CCN(CC)C(=O)C(=O)NN=Cc1ccc(Cl)cc1Cl	4.6
CCC(=NNC(=O)CSCc1ccc(Cl)cc1)c1ccc2c(c1)OCCO2	-1.0
Cc1ccccc1C=Nn1c(-c2ccccn2)n[nH]c1=S	1.8
Cc1nn(-c2ccccc2)c(C)c1C=NNC(=O)CSc1nnc(SCc2ccccc2Cl)s1	5.5
CC(=O)Oc1ccc(C(C)=NN2CCN(Cc3ccc(C)cc3)CC2)cc1	6.4
CC(=NNC(=O)C(C)Nc1cccc(Cl)c1)c1ccc([N+](=O)[O-])cc1 (stereo not given)	2.9
O=C(NN=CC1CCCCC1)c1ccccn1	0.3
CC(=O)NC1CCCN(O)C(=O)C=C(C)CCOC(=O)C(NC(C)=O)CCCN(O)C(=O)C=C(C)CCOC(=O)C(NC(C)=O)CCCN(O)C(=O)C=C(C)CCOC1=O (stereo not given)	-0.9
Cc1nn(C)c(Cl)c1C=NOC(=O)c1ccc(F)cc1	-2.4
Cc1ccc(NC(=O)C(C#N)=NNc2ccc(C(=O)O)cc2)c(C)c1	14
COc1cc(C=NNC(=O)c2cccnc2)ccc1OC(=O)c1cccc(Br)c1	-7.8
Cc1nnsc1C(=O)NN=Cc1ccc(OC(F)(F)F)cc1	-2.5
COc1cccc(C(=O)NCC(=O)NN=C(C)Cc2ccccc2)c1	2.4
COc1ccccc1NS(=O)(=O)c1cccc(C(=O)NN=Cc2c(C)nn(-c3ccccc3)c2N2CCCC2)c1	-28
Cc1ccc(Sc2nc3ccc(C)cn3c(=O)c2C=NO)cc1	-14
O=C(O)COc1ccccc1C=NNc1ccc(S(=O)(=O)N2CCOCC2)cc1[N+](=O)[O-]	23*
Cc1ccc(-c2c(C(=O)NN=Cc3c[nH]c4ccccc34)nnn2-c2nonc2N)cc1	-48
The list continues.
SMILES	UCH37 inh
Nc1cccc(C(=O)NN=Cc2ccsc2)c1	1.1
CC(=NNC(=O)CCC(=O)Nc1ccc(C)c(C)c1)c1cccs1	2.8
COc1cccc(C=NNC(=O)c2ccccc2)c1OS(=O)(=O)c1ccccc1	6.0
CC(=NNC(=O)c1nnn(-c2nonc2N)c1CN1CCCCC1)c1ccccc1O	-14
Cc1nn(C)c(C(=O)NN=Cc2cccnc2)c1Br	4.9
O=C(NN=Cc1cccs1)c1cc(C2CC2)nc2ccccc12	1.8
Cc1ccc(N(C)N=Cc2ccc(Cl)cc2Cl)nn1	-63
COc1ccc(C=Nn2cncn2)cc1Cn1nc(C)c([N+](=O)[O-])c1C	5.3
CN(C)C=NC(=S)Nc1ccc(Cl)cc1	4.3
Cc1occc1C(=O)NN=Cc1ccc2c(c1)OCO2	4.5
Cc1ccc(NC(=O)c2ccc(NN=Cc3cccc(O)c3)c([N+](=O)[O-])c2)cc1	8.8
CC(/C=C/c1ccccc1)=NNC(=O)c1ccncc1	10
CC(=NO)c1ccn(S(=O)(=O)c2ccc(Cl)cc2)c1	1.7
O=C(NC(Cc1c[nH]c2ccccc12)C(=O)NN=Cc1cccc2ccccc12)c1cccs1 (stereo not given)	-0.2
O=C(NN=Cc1ccncc1)c1ccc(NC(=O)c2ccc(Cl)cc2)cc1	1.9
Cc1ccccc1C(=O)NN=Cc1ccc([N+](=O)[O-])s1	12
Clc1ccc(-c2ccc(C=NNc3cc(N4CCOCC4)nc(N4CCOCC4)n3)o2)cc1	-22
S=c1[nH]nc(-c2ccncc2)n1N=Cc1ccccc1	0.4
S=c1[nH]nc(-c2ccccn2)n1N=Cc1ccc(Cl)cc1	5.4
CCOc1ccc2ccc(OCC)c(C=Nn3cnnc3)c2c1	2.2
Cc1cc(C=Nn2c(COc3ccccc3C)nc3ccccc3c2=O)c(O)c([N+](=O)[O-])c1	2.6
O=C1c2ccccc2C(=O)N1N=Cc1ccc(O)c(O)c1	6.1
COc1ccc(C=NNc2ccccc2)cc1Cn1nc(C)c([N+](=O)[O-])c1C	6.0
CC(=NNC1=N[C@H]2CS(=O)(=O)C[C@H]2S1)c1ccccc1	-0.9
O=C1C2C3C=CC(C4CC34)C2C(=O)N1N=Cc1ccc(-c2ccc(F)cc2[N+](=O)[O-])o1 (stereo not given)	4.4

Fetched by structure from above, 3 records:
SMILES	UCH37 inh
CS(=O)(=O)N(CC(=O)NN=Cc1cccs1)c1cccc(Cl)c1Cl	3.4
CCOC(=O)NN=C/C=C/c1ccco1	6.6
O=C(CSc1nc2ccccc2n1Cc1ccc(Cl)cc1)NN=Cc1ccccc1C(=O)O	4.9

Carrying on.
SMILES	UCH37 inh
O=C(NN=Cc1ccc(-c2ccccc2)o1)c1ccccc1O	-43
CCCCCCCC1CC(C(C)=NNC(N)=O)OC1=O (stereo not given)	-0.7
COCc1cc(=O)[nH]c(N=C(N)Nc2ccccc2C)n1	29*
Cc1ccc(S(=O)(=O)NN=Cc2ccc(OCC(=O)Nc3ccccc3Cl)cc2)cc1	1.2
Cc1cc(C=NNC(=O)COc2cccc3cccnc23)c(C)n1-c1ccc(Br)cc1	0.9
Cc1ccc(C(=O)Nc2cccc(C(=O)NN=Cc3ccccc3F)c2)cc1	1.0
Cc1cc(=O)[nH]c(NN=Cc2cn(CCC#N)nc2-c2ccccc2)n1	2.0
COc1ccc(NS(=O)(=O)c2cc([N+](=O)[O-])ccc2NN=Cc2c(C)[nH]c3ccccc23)cc1	6.3

Source: PubChem
